ID4 binder: binders of human ID4 protein, primary screen, biochemical, small molecule microarray, single point; calls only; hit rate 1.2% among 31,000; DNA-binding protein inhibitor ID-4 (Homo sapiens), P47928; Flag-ID4 binding, fluorescence F/B;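 active = spot signal over background at p below 0.07 in all four prints; compounds were printed on slides so no solution concentration is given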;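 also: a binder raises fluorescence above local background on the spot; about 2 pmol printed per array spot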
Target sequence (P47928 whole entry, looked up): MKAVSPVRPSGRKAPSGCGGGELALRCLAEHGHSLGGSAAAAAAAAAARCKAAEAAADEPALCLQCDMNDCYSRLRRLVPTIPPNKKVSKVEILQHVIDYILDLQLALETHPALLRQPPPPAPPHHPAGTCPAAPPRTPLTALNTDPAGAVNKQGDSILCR
Calls only; i = inactive.

canonical_smiles	ID4 binder
COC(=O)c1ccc2c(=O)n(CCCN3CCOCC3)c(=S)[nH]c2c1	i
C[C@@H](O)C#Cc1ccc2c(c1)O[C@H](CN(C)Cc1ccccc1)[C@@H](C)CN([C@@H](C)CO)S2(=O)=O	i
O=C(C[C@H]1CC[C@@H](NS(=O)(=O)c2ccccc2F)[C@H](CO)O1)NCCCN1CCOCC1	i
C[C@@H]1CN([C@H](C)CO)C(=O)c2cc(-c3ccccc3F)cnc2O[C@H]1CN(C)Cc1cccc(F)c1	i
C[C@@H]1CN([C@H](C)CO)S(=O)(=O)c2ccc(C3=CCCCC3)cc2O[C@@H]1CN(C)S(=O)(=O)c1cn(C)cn1	i
CC(C)NC(=O)N(C)C[C@H]1Oc2ncc(-c3cncnc3)cc2C(=O)N([C@@H](C)CO)C[C@@H]1C	i
CS(=O)(=O)N(CC(=O)Nc1ccccc1C(F)(F)F)c1cc(Cl)c(Cl)cc1Cl	i
O=C(COc1cc(Cl)c(Cl)cc1Cl)Nc1ccccc1[N+](=O)[O-]	i
Cc1onc(-c2ccccc2)c1-c1ccc(S(N)(=O)=O)cc1	i
O=C(C[C@@H]1CC[C@@H](NC(=O)C2CC2)[C@@H](CO)O1)NCC1CC1	i
Cc1ccccc1OC(C)c1nc(-c2ccccn2)no1 (stereo not drawn)	i
CN1CCN(C(=O)C[C@@H]2C[C@@H]3c4cc(NC(=O)CC5CC5)ccc4O[C@@H]3[C@@H](CO)O2)CC1	i
CNC[C@H]1Oc2cc(C#CC3(O)CCCC3)ccc2S(=O)(=O)N([C@H](C)CO)C[C@H]1C	i
C[C@@H]1CN([C@@H](C)CO)C(=O)c2cc(C3=CCCC3)cnc2O[C@@H]1CN(C)Cc1ccccn1	i
CO[C@@H](CN(C)C(=O)C1CCOCC1)[C@H](C)CN([C@@H](C)CO)S(=O)(=O)c1ccccc1	i
C[C@H](O)C#Cc1cnc2c(c1)C(=O)N([C@@H](C)CO)C[C@@H](C)[C@H](CN(C)CC1CCCC1)O2	i
C/C=C/c1cnc2c(c1)C(=O)N([C@H](C)CO)C[C@H](C)[C@@H](CN(C)CC1CCOCC1)O2	i
O=C(CSc1nnc(-c2ccncc2)n1-c1ccccc1)Nc1ccc(Cl)c(Cl)c1	i
C[C@H](CO)N1C[C@H](C)[C@H](CN(C)Cc2ccc(F)cc2)Oc2ncc(-c3ccccc3)cc2C1=O	i
O=C(c1ccccc1)c1ccc(OCC(O)Cn2cnc3ccccc32)cc1 (stereo not drawn)	i
C[C@H]1CN([C@@H](C)CO)S(=O)(=O)c2ccc(-c3ccc(C(=O)N(C)C)cc3)cc2O[C@H]1CN(C)Cc1ccccc1C(=O)O	i
O=C(C[C@@H]1CC[C@H](NC(=O)c2ccccc2)[C@H](CO)O1)Nc1ccc(-c2ccccc2)cc1	i
N#CCSc1nnc(-c2ncc(C(F)(F)F)cc2Cl)n1-c1ccc(Cl)cc1	i
C[C@@H]1CN([C@H](C)CO)C(=O)c2cc(-c3ccccc3)cnc2O[C@@H]1CN(C)C(=O)Cc1ccccc1	i
COc1ccccc1NC(=O)CSc1nnc(-c2ccc(Br)cc2)n1C	i

Overlap with the part before: 2 compounds, followed by the next part.
canonical_smiles	ID4 binder
C[C@@H]1CN([C@H](C)CO)C(=O)c2cc(-c3ccccc3)cnc2O[C@@H]1CN(C)C(=O)Cc1ccccc1	i
COc1ccccc1NC(=O)CSc1nnc(-c2ccc(Br)cc2)n1C	i
C[C@@H]1CN([C@H](C)CO)C(=O)c2cc(Br)cnc2O[C@H]1CN(C)Cc1ccncc1	i
CN(C)C(=O)C[C@H]1C[C@@H]2c3cc(N(C)C)ccc3O[C@@H]2[C@@H](CO)O1	i
O=C(NCCCn1ccnc1)c1cc(-c2cccnc2)nc2ccc(Br)cc12	i
COCCNC(=O)c1ccccc1NC(=O)Nc1ccccc1	i
S=C(NCCc1cnc[nH]1)Nc1ccc(Oc2ccccc2)cc1	i
COCCNC(=O)C[C@@H]1C=C[C@H](NC(=O)NC2CCCCC2)[C@@H](CO)O1	i
CN(C)C(=O)C[C@@H]1CC[C@H](NC(=O)C2CCOCC2)[C@@H](CO)O1	i
CNC[C@H]1Oc2cc(C#Cc3ccc(F)cc3)ccc2S(=O)(=O)N([C@@H](C)CO)C[C@H]1C	i
CNC[C@@H]1Oc2ncc(-c3cncnc3)cc2C(=O)N([C@@H](C)CO)C[C@H]1C	i
CC(=O)Nc1cccc(NC(=O)CNc2ccc(C(F)(F)F)cc2[N+](=O)[O-])c1	i
CC(C)c1ccc(NC(=O)CSCc2csc3ccccc23)cc1	i
O=c1[nH]c2nonc2nc1/C=C(\O)c1ccccc1	i
COc1ccc(NC(=O)N[C@@H]2C=C[C@@H](CC(=O)NC3CCC3)O[C@H]2CO)cc1	i
O=c1cc(-c2ccccc2)oc2ccccc12	i
COC(=O)c1cc(OC)c(OC)cc1NC(=O)COc1ccc(Cl)cc1Br	i
C[C@@H]1CN([C@@H](C)CO)C(=O)c2cc(C#Cc3ccccn3)cnc2O[C@@H]1CN(C)CC1CCOCC1	i
O=C(CSc1nc(O)cc(=O)[nH]1)Nc1ccc(Br)cc1	i
Cc1ccccc1NC(=O)CSc1ncnc2scc(-c3ccc(Cl)cc3)c12	i
COCCNC(=O)C[C@@H]1C[C@H]2c3cc(NC(=O)Nc4ccccc4)ccc3O[C@H]2[C@H](CO)O1	i
O=C(O)C1CCCN(CCC=C(c2ccccc2)c2ccccc2)C1 (stereo not drawn)	i
O=S(=O)(c1ccc(Cl)cc1)c1nc(-c2ccccc2F)oc1NCCN1CCOCC1	i
CCOC(=O)c1sc(NC(=O)c2cnccn2)c(C(=O)OC)c1C	i
O=C(CCCN1C(=O)c2ccccc2C1=O)Nc1ccccc1Cl	i
C=C(C)Cn1c(SCc2nc3ccccc3[nH]2)nc2sc3c(c2c1=O)CCCC3	i
C[C@H](CO)N1C[C@H](C)[C@@H](CN(C)C(=O)C2CCCCC2)Oc2ncc(C3=CCCC3)cc2C1=O	i

(continued)
canonical_smiles	ID4 binder
CCN(CC)C(=O)CSc1nc2ccccc2c(=O)[nH]1	i
C[C@@H]1CN([C@H](C)CO)S(=O)(=O)c2ccc(C3=CCCC3)cc2O[C@@H]1CN(C)C(=O)c1cnccn1	i
COCC#Cc1cnc2c(c1)C(=O)N([C@H](C)CO)C[C@@H](C)[C@H](CN(C)C(=O)Nc1c(C)noc1C)O2	i
Cc1cccc(NC(=O)c2ccccc2NC(=O)COc2ccccc2Cl)c1C	i
Cc1ccc(-c2nnc(Nc3ccc(C(=O)N(C)C)cc3)c3ccccc23)cc1S(N)(=O)=O	i
COc1ccc(NC(=O)CSC2CC(=O)N(c3ccccc3)C2=O)cc1Cl (stereo not drawn)	i
COc1ccc(NC(=O)CCc2nc(-c3ccccc3)no2)cc1	i
COc1ccc(N(CC(=O)Nc2ccccc2Br)S(C)(=O)=O)cc1OC	i
C/C=C/c1ccc2c(c1)O[C@@H](CN(C)Cc1ccc(F)cc1)[C@@H](C)CN([C@@H](C)CO)S2(=O)=O	i
O=C(C[C@H]1CC[C@@H](NC(=O)C2CC2)[C@@H](CO)O1)Nc1ccccc1	i
C[C@H](CO)N1C[C@H](C)[C@@H](CN(C)Cc2ccccc2)Oc2ncc(/C=C/c3ccccc3)cc2C1=O	i
COc1ccc(C(C)C)cc1S(=O)(=O)Nc1cccnc1	i
CC(=O)c1cccc(NC(=O)C2CCCN(S(=O)(=O)c3ccc(F)cc3)C2)c1 (stereo not drawn)	i
Cc1cc(C)c(OCC(=O)Nc2ccccc2-c2nc3ccccc3s2)c(Br)c1	i
CCC1=NN(C(=O)C(C)C)C(O)(c2ccc(Br)cc2)C1 (stereo not drawn)	i
CC(C)NC(=O)N(C)C[C@H]1Oc2cc(-c3ccccc3F)ccc2S(=O)(=O)N([C@@H](C)CO)C[C@H]1C	i
CCOC(=O)c1sc(NC(=O)c2cc3ncc(Br)cn3n2)c(C(=O)OCC)c1C	i
COC(=O)c1ccccc1NC(=O)COc1ccc(C)cc1C	i
Cc1cc(OCC(=O)NCc2ccco2)ccc1Cl	i
COc1ccc(OC)c(Nc2ncnc3c2cnn3-c2ccccc2)c1	i
N#Cc1ccc(NC(=O)Cn2cnc([N+](=O)[O-])c2)cc1	i
O=C(C[C@H]1C=C[C@H](NC(=O)C2CC2)[C@@H](CO)O1)NCc1ccncc1	i
CC(=O)c1c(C)oc2ccc(N(C(=O)c3ccc(C)cc3)S(=O)(=O)c3cccc4cccnc34)cc12	i
CCC(C)NC(=O)Cn1c(=O)n(-c2ccc(Cl)c(Cl)c2)c(=O)c2c(C)c(C)sc21 (stereo not drawn)	i
Cc1ccc2oc(C(=O)Nc3ccc(S(=O)(=O)Nc4ncccn4)cc3)c(C)c2c1	i

C[C@@H]1CN([C@H](C)CO)C(=O)c2cc(/C=C/c3ccccc3)cnc2O[C@@H]1CN(C)S(=O)(=O)c1cn(C)cn1
  ID4 binder: i
CC(NS(=O)(=O)c1ccccc1)C(=O)Nc1ccc(I)cc1 (stereo not drawn)
  ID4 binder: i
C[C@@H]1CN([C@@H](C)CO)C(=O)c2cc(NC(=O)Cc3cn(C)c4ccccc34)ccc2O[C@@H]1CN(C)C
  ID4 binder: i
CC(C)CC#Cc1cnc2c(c1)C(=O)N([C@H](C)CO)C[C@H](C)[C@@H](CN(C)C(=O)c1ccc(F)cc1)O2
  ID4 binder: i
C[C@H]1CN([C@@H](C)CO)S(=O)(=O)c2ccc(C3=CCCCC3)cc2O[C@@H]1CN(C)S(=O)(=O)c1ccc(F)cc1
  ID4 binder: i
CN1CCc2cccc3c2[C@H]1Cc1ccc(O)c(O)c1-3
  ID4 binder: i
CCCCc1c(-c2ccc(O)cc2)[nH]c2nccnc12
  ID4 binder: i
CCCc1ccc(-c2c(C)sc(N)c2C#N)cc1
  ID4 binder: i
Cc1ccc(F)c(NC(=O)CSc2nnnn2-c2ccccc2)c1
  ID4 binder: i
C[C@H]1CN([C@@H](C)CO)C(=O)c2cc(C3=CCCCC3)cnc2O[C@@H]1CN(C)Cc1ccccc1F
  ID4 binder: i

3 compounds from above, arranged by length of the SMILES, smallest number first.
CCCCc1c(-c2ccc(O)cc2)[nH]c2nccnc12
  ID4 binder: i
CN1CCc2cccc3c2[C@H]1Cc1ccc(O)c(O)c1-3
  ID4 binder: i
CC(NS(=O)(=O)c1ccccc1)C(=O)Nc1ccc(I)cc1 (stereo not drawn)
  ID4 binder: i

Continuation:
C[C@@H]1CN([C@H](C)CO)S(=O)(=O)c2ccc(C3=CCCC3)cc2O[C@@H]1CN(C)CC1CCOCC1
  ID4 binder: i
CC(=O)O[C@H]1C(=O)[C@@]2(C)[C@H]([C@H](OC(=O)c3ccccc3)[C@]3(O)C[C@H](OC(=O)[C@H](O)[C@@H](NC(=O)c4ccccc4)c4ccccc4)C(C)=C1C3(C)C)[C@]1(OC(C)=O)CO[C@@H]1C[C@@H]2O
  ID4 binder: i
O=C(CSC1CC(=O)N(c2ccccc2F)C1=O)Nc1ccc(Cl)cc1 (stereo not drawn)
  ID4 binder: i
CC1CCCCN1Cc1nc(N)nc(Nc2ccc3c(c2)OCCO3)n1 (stereo not drawn)
  ID4 binder: i
CC(Oc1ccc(Cl)cc1Cl)C(=O)Nc1cccc(NC(=O)c2ccc(Cl)cc2Cl)c1 (stereo not drawn)
  ID4 binder: i
COc1ccccc1S(=O)(=O)N[C@@H]1C=C[C@@H](CC(=O)NCc2cccc(F)c2)O[C@H]1CO
  ID4 binder: i
C[C@H]1CN([C@@H](C)CO)S(=O)(=O)c2ccc(C3=CCCC3)cc2O[C@@H]1CN(C)C
  ID4 binder: i
CC(=O)C(C#N)C(=O)Nc1ccc(OC(F)(F)F)cc1 (stereo not drawn)
  ID4 binder: i
O=C(CSc1nnnn1-c1ccccc1)Nc1cccc2nsnc12
  ID4 binder: i
C[C@H](CO)N1C[C@H](C)[C@@H](CN(C)Cc2ccc(F)cc2)Oc2ncc(C#CCN(C)C)cc2C1=O
  ID4 binder: i

O=C(CSc1ncnc2sc3c(c12)CCCC3)N1CCC(c2noc3ccc(F)cc23)CC1
  ID4 binder: i
Cc1c(NC(=O)COc2ccc(C(C)C)cc2)cccc1C(=O)O
  ID4 binder: i
C[C@H]1CN([C@@H](C)CO)C(=O)c2cc(-c3cccc(F)c3)cnc2O[C@H]1CN(C)Cc1ccncc1
  ID4 binder: i
C[C@H]1CN([C@@H](C)CO)C(=O)c2cc(-c3ccncc3)cnc2O[C@H]1CN(C)C(=O)c1ccccc1F
  ID4 binder: i
Cc1ccccc1-c1noc(CCC(=O)Nc2cccc(C)c2C)n1
  ID4 binder: i
COCCOC(=O)N1C(=O)[C@@]2(c3ccccc31)[C@H](C(=O)N1CCN(c3ncccn3)CC1)[C@H]1C(=O)O[C@H](c3ccccc3)[C@H](c3ccccc3)N1[C@@H]2c1ccc(O)cc1
  ID4 binder: i
C[C@@H]1CN([C@@H](C)CO)S(=O)(=O)c2ccc(C3=CCCC3)cc2O[C@@H]1CN(C)Cc1ccncc1
  ID4 binder: i
C[C@@H]1CN([C@H](C)CO)C(=O)c2cc(-c3cccc(F)c3)cnc2O[C@H]1CN(C)C(=O)C1CCOCC1
  ID4 binder: i
O=C(COc1cccc(NC(=O)c2ccc([N+](=O)[O-])cc2)c1)c1ccc(Br)cc1
  ID4 binder: i
O=C(Cn1nc(-c2cccc([N+](=O)[O-])c2)c2ccccc2c1=O)Nc1ccc(F)cc1
  ID4 binder: i
COc1ccccc1NC(=O)CNS(=O)(=O)c1ccc(C)cc1
  ID4 binder: i

Molecules listed so far that contain an NH in an aromatic ring, in the order listed:
COC(=O)c1ccc2c(=O)n(CCCN3CCOCC3)c(=S)[nH]c2c1
  ID4 binder: i
S=C(NCCc1cnc[nH]1)Nc1ccc(Oc2ccccc2)cc1
  ID4 binder: i
O=c1[nH]c2nonc2nc1/C=C(\O)c1ccccc1
  ID4 binder: i
O=C(CSc1nc(O)cc(=O)[nH]1)Nc1ccc(Br)cc1
  ID4 binder: i
C=C(C)Cn1c(SCc2nc3ccccc3[nH]2)nc2sc3c(c2c1=O)CCCC3
  ID4 binder: i
CCN(CC)C(=O)CSc1nc2ccccc2c(=O)[nH]1
  ID4 binder: i
CCCCc1c(-c2ccc(O)cc2)[nH]c2nccnc12
  ID4 binder: i

Only part of the results is shown, so the mix of outcomes need not match the whole.
